Compound activity from PubChem.
GIV Gai3 FP: blocks GIV peptide binding to rat Galpha-i3. P08753. Galpha-i3/FITC-GIV peptide fluorescence polarization, 90 min; stronger effect = lower value; scaled: aluminum fluoride 0%, vehicle 100%. percent of control (FP), % (test concentration not listed). 210,000 tested, 0.42% active;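 active means replicate mean at 85% of control or lower, very high polarization wells dropped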;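 further: wells of about 15 µL received 100 nL stock; the first replicate is given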
Target sequence (P08753 whole entry, looked up): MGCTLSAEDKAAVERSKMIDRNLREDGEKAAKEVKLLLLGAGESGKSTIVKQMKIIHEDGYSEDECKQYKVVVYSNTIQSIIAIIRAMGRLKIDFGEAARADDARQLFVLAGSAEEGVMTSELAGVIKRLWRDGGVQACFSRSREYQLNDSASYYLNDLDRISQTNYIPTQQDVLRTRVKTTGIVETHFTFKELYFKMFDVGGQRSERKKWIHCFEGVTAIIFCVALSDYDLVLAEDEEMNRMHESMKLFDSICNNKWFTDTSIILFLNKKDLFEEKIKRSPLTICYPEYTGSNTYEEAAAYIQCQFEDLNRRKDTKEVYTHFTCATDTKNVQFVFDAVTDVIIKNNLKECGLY
The depositor's hits bear a star. An excerpt. The share of hits here may be higher or lower than overall.

molecule	GIV Gai3 FP
CC1(C)CC(=O)C2=C(C1)NC1=C(C(=O)c3ccccc31)C2c1cccc(O)c1 (stereo not drawn)	113
c1ccc2c(c1)NC(=NC1CCCCC1)C1(CCCCCC1)N2	98
Cc1ccc(-c2noc(C(=O)N3CCCCC3)n2)cc1S(=O)(=O)N1CCN(c2ccccc2)CC1	96
COc1ccc(C(=O)Nc2ccc(OC)c(OC)c2)c(OC)n1	110
C=C1N(CCCCCCCC)C(=O)OC12CCCCC2	108
C=CC(=O)N1c2cc(C)c(C)cc2C(=C2SC(C(=O)OC)=C(C(=O)OC)S2)C(=S)C1(C)C	106
CCOC(=O)c1c(CSc2nc3ccccc3s2)[nH]c2cc(Br)c(OC(C)=O)cc12	106
Cc1cccc(-c2cnc(N3CCC(C(=O)NC(C)CCc4ccccc4)CC3)nc2)c1 (stereo not drawn)	99
CCCCOc1ccc(C(=O)CSc2nc3c([nH]2)c(=O)n(C)c(=O)n3C)cc1	109
CC1=C(C(=O)Nc2ccc(Cl)cc2)C(c2ccco2)C(C#N)=C(SCC(=O)Nc2cccc3ccccc23)N1 (stereo not drawn)	116
O=C(NC1CC1)c1cccc2c1CCN2C(=O)C1CC1	104
O=C1c2ccccc2C(=O)c2cc(NS(=O)(=O)c3ccc4c(c3)C(=O)c3ccccc3C4=O)ccc21	110
Cc1c(Cl)cccc1NC(=O)C1CCCN(C(=O)c2ccccc2F)C1 (stereo not drawn)	108
CCC1C(c2ccccc2)NC(c2ccccc2)CC1(O)Cc1ccccc1 (stereo not drawn)	119
Cc1ccccc1OCCOc1ccc(/C=C2/C(=N)N3C(c4ccccc4)=CSC3=NC2=O)cc1	115
O=C(CCCCCn1c(=S)[nH]c2ccccc2c1=O)NCCc1c[nH]c2ccccc12	101
COc1cc(/C=c2\sc3nc4ccccc4n3c2=O)c([N+](=O)[O-])cc1OCc1ccccc1	114
CC(=O)N1C(=O)C2(C(C#N)=C(N)Oc3n[nH]c(C)c32)c2ccccc21 (stereo not drawn)	105
Clc1cccc(Nc2nc3nonc3nc2N2CCOCC2)c1	102
CCOC(=O)c1ccccc1NC(=O)CSc1nc2n[nH]c(C)c2c(=N)n1-c1ccc(OC)cc1	104
COc1ccc(/C=C2\N=C(c3ccc(-c4ccccc4)cc3)OC2=O)c(OC)c1OC	103
COC(=O)Cc1nc(Nc2ccc(Cl)cc2)c2c(C)c(C)sc2n1	101
COc1ccc(OC)c(Nc2ncnc3c2nnn3C)c1	105
N#CC1=C(N)Oc2n[nH]c(-c3ccc(Br)cc3)c2C1c1ccc(OC(=O)c2ccco2)cc1 (stereo not drawn)	110
Cc1csc(-c2cc(S(=O)(=O)N3CCC(Cc4ccccc4)CC3)c(C)s2)n1	98

The list continues:
molecule	GIV Gai3 FP
COC(=O)Nc1ccc(S(=O)(=O)N2CCCC(C(=O)N3CCCCCC3)C2)cc1 (stereo not drawn)	123
Cc1onc(-c2ccccc2Cl)c1C(=O)N1CCN(c2ccc(N3CCCC3)nn2)CC1	101
Cc1ccc(COCc2nn(C)c3c2CN(C(=O)c2ccc(C(C)(C)C)cc2)CC3)cc1	109
CCCN(Cc1ccc(C)cc1)Cc1cc(=O)n2nc(C3CC3)sc2n1	104
COCCN1CCc2nc(SCc3ccc(C(C)(C)C)cc3)[nH]c(=O)c2C1	98
O=C(Nc1ccc2c(c1)OCCO2)N1CCC(N2CCN(Cc3ccc(F)cc3)C(=O)C2=O)CC1	99
CN(C)c1ccc(C2(c3ccc(N(C)C)cc3)C=Cc3c(ccc4ccccc34)O2)cc1	111
CCOC(=O)C1CCN(C(=O)c2cnn3c(C(F)(F)F)cc(-c4ccc(OC)c(OC)c4)nc23)CC1	101
CCOC(=O)c1c(CSc2nc3ccccc3s2)n(-c2ccccc2)c2cc(Br)c(OC(C)=O)cc12	101
O=C(CSc1sc(=S)sc1SCC(=O)c1ccc(Cl)cc1)c1ccc(Cl)cc1	106
O=S(=O)(c1cccc(Cl)c1)N1CCN(c2ncnc3c2nnn3-c2ccccc2)CC1	98
CCCCCCCCOc1ccc(-c2ncc(CCCCCCCC)cn2)cc1	111
CCOC(=O)C1=CN2[C@H](C(=O)c3ccccc3)[C@@H](c3ccccc3)[C@H](C(=O)C34CC5CC(CC(C5)C3)C4)[C@@H]2C=C1	109
Cc1nnc(-c2csc(S(=O)(=O)Nc3ccc(Cl)cc3)c2)o1	108
COc1ccc(-c2csc(=Nc3ccc(F)cc3)n2CCc2ccc(OC)c(OC)c2)cc1F	106
Cc1ccc(C)c(C2=NN(c3ccccc3)C3(SC(c4ccccc4)=NN3c3ccc([N+](=O)[O-])cc3)c3ccccc32)c1 (stereo not drawn)	109
Cc1cc2[nH]c(C(=O)NCCN3CCOCC3)c(CN3CCCC3)c2s1	101
COc1ccc(OC)c(-n2c(N)c(C(=O)Nc3ccccc3C)sc2=S)c1	110
O=C(CN1C(=O)C(C(=O)N2CCCCC2)Sc2ccccc21)N1CCc2ccccc2C1 (stereo not drawn)	100
CCOC(=O)c1sc2nc(CC(=O)OC)nc(NCc3ccco3)c2c1C	104
CCOc1ccccc1-n1c(=S)sc2c1nc(SCC(=O)N(CC)CC)n1c3ccccc3nc21	106
O=C(CN1C(=O)c2ccccc2S1(=O)=O)N1CCCCC1	103
CC(C)CNC(=O)N1CCCC1c1cc(C(C)C)no1 (stereo not drawn)	103
CCC1CCCCN1C(=O)c1ccc(NC(C)=O)o1 (stereo not drawn)	105
CC(C)(C)c1ccc(S(=O)(=O)Nc2cc3c4c(oc3c3ccccc23)CCCC4)cc1	107

Additional compounds follow:
molecule	GIV Gai3 FP
CC1CCN(c2ccc(-c3noc(C(=O)NCCc4nc5ccccc5[nH]4)n3)cc2)CC1	102
NC(=O)c1ccccc1NC(=O)c1ccc(=O)n(Cc2ccccc2Cl)c1	107
Cc1cc(C)c2c(c1)-c1c(ssc1=S)C(C)(C)N2	110
COc1ccc(NC2c3cccc4cccc(c34)C2NS(=O)(=O)c2ccc(Cl)cc2)cc1 (stereo not drawn)	109
O=c1/c(=C\c2cccc(F)c2)sc2nc3cc(Br)cnc3n12	101
CCN(CCCNC(=O)C1CCN(c2ncnc3c2oc2ccccc23)CC1)c1ccccc1	108
CCOC(=O)c1ccc(Nc2nc(-c3cccnc3)nc3ccccc23)cc1	102
CN(C)CCCNC(=O)c1sc2ncccc2c1-n1cccc1	108
COc1ccc(NC(=O)c2sc3ncnc(N4CCN(c5ccccn5)CC4)c3c2C)c(OC)c1	106
Nc1nnc(SCc2nnc(-c3ccccc3)o2)s1	104
COc1cc(C2Oc3c(OC)cccc3C3CC(c4ccco4)=NN32)cc(OC)c1OC (stereo not drawn)	122
C=CCn1c(SCc2nc(-c3ccccc3)no2)nc2cc3c(cc2c1=O)OCO3	106
Cc1ccc(NC(=O)CSc2nc3cc(C(=O)NCc4ccco4)ccc3c(=O)n2Cc2ccco2)cc1	109
CCOc1ccc(C2C(N3C(=O)c4c(Cl)c(Cl)c(Cl)c(Cl)c4C3=O)C(=O)N2c2ccc(Cl)cc2C)cc1 (stereo not drawn)	109
O=C(CC1CCCC1)N1CCC(Nc2ncnc3c2CCC3)C1 (stereo not drawn)	97
O=[N+]([O-])c1ccc(Cl)c(-c2ccc(/C=N/c3c(-c4ccco4)nc4ccccn34)o2)c1	102
Cc1ccc(NC(=O)c2c(O)c3c4c(sc3[nH]c2=O)CCCC4)cc1C	108
Cc1csc(NC(=O)CSc2nc(-c3ccccc3)nc3c2c(=O)n(C)c(=O)n3C)n1	95
CCN(CC)S(=O)(=O)c1ccc2c(c1)C(=NO)c1cc(S(=O)(=O)N(CC)CC)ccc1-2	114
O=C(CCn1c(SCc2cc(=O)n3cc(Cl)ccc3n2)nc2ccccc2c1=O)NCCc1ccccc1	99
O=C1NC(=S)N(c2cccc(Cl)c2Cl)C(=O)/C1=C/c1ccc(N2CCOCC2)o1	192
CN(CCO)CC(O)Cn1c2ccc(Cl)cc2c2cc(Cl)ccc21 (stereo not drawn)	108
Cc1ccc(C2/C(=C(\O)c3ccc(F)cc3)C(=O)C(=O)N2CCCN2CCOCC2)cc1 (stereo not drawn)	105
COc1ccc(OC)c(CNC(=O)C2CCCN(c3ncnc4c3oc3ccccc34)C2)c1 (stereo not drawn)	98
CCOc1ccc(S(=O)(=O)Nc2ccc3c(c2)c2c(n3S(=O)(=O)c3ccc(OCC)cc3)CC(C)(C)CC2=O)cc1	114

New compounds follow
molecule	GIV Gai3 FP
CCOC(=O)N1CCN(S(=O)(=O)c2ccc(C(=O)Nc3sc4c(c3-c3nc5ccccc5s3)CCCC4)cc2)CC1	110
CC(C)NC(=O)C1CCN(C(=O)c2nn(C)c3c2CN(C(=O)C(C)C)CC3)CC1	106
CC(NC(=O)C1CCc2nc(N3CCOCC3)ncc2C1)c1ccco1 (stereo not drawn)	101
CCC(C)NC(=O)N1CCCC1c1cc(C(C)C)no1 (stereo not drawn)	100
Cc1ccc(NS(=O)(=O)c2cc(-c3cc(C(F)(F)F)on3)sc2C)cc1Cl	101
CCc1nc(SCc2noc(CCC(=O)Nc3cc(F)cc(F)c3)n2)n[nH]1	102
Cc1cc(-n2c(N)c(C(=O)NCc3ccc4c(c3)OCO4)sc2=S)ccc1Cl	106
Cc1cc(N)nn1C(=O)CSc1nc2cc(C(=O)N3CCC(C(N)=O)CC3)ccc2c(=O)n1Cc1ccco1	116
CCOC(=O)C1=c2s/c(=C/c3cccc(OC)c3)c(=O)n2C(N)=C(C#N)C1c1cccc(OC)c1 (stereo not drawn)	107
O=C(NC1CCCCC1)c1ccc2c(c1)nc1n2CCOC1	101
CCOc1cccc2cc(C(=O)Nc3ccc(OC)cc3OC)c(=Nc3ccc(C(=O)O)cc3)oc12	112
CCCCOCC1CC2(CC(C)(c3csc(Nc4ccc(C)cc4)n3)OC2=O)C(=O)O1 (stereo not drawn)	101
O=S(=O)(NCCc1n[nH]c(Cc2cccc(F)c2)n1)c1ccccc1F	102
COc1ccc(OC)c(CNC(=O)C(C)Oc2ccc(=O)n(-c3cc(Cl)ccc3C)n2)c1 (stereo not drawn)	105
COc1nc(Cl)nc(Nc2ccccc2-c2ccccc2)n1	107
Cc1nc(-c2csc(S(=O)(=O)N3CCCC(C(=O)Nc4cccnc4)C3)c2)no1 (stereo not drawn)	106
CCOc1ccc(S(=O)(=O)N2CCCN(S(=O)(=O)c3ccc(OCC)c4ccccc34)CC2)c2ccccc12	113
COc1ccc(-c2oc(/N=C/c3cccc([N+](=O)[O-])c3)c(C#N)c2-c2ccc(OC)cc2)cc1	106
Cc1nn(-c2nc3ccccc3s2)c2c1C(c1c(C)sc3ccccc13)CC(=O)N2 (stereo not drawn)	101
COCCNc1nc(SCC(=O)NCc2ccco2)nc2ccccc12	101
CC(C)n1c(N2CCN(C(=O)C3CCC3)CC2)cc(=O)n(C(C)C)c1=O	110
Cc1[nH]nc(-c2c(C)sc(C)c2S(=O)(=O)NCCCc2ccccc2)c1C	101
Cc1cc(C)cc(C(=O)Nc2c(C)nc3cc(C)ccn3c2=O)c1	100
Clc1ccc(-n2ncc3c(NCc4ccccc4Cl)ncnc32)cc1	104
O=C(CCc1nc(CSc2nc3ccccc3o2)no1)Nc1nc(-c2ccccc2)cs1	109

At a glance, 4 of the compounds above:
molecule	GIV Gai3 FP
Cc1[nH]nc(-c2c(C)sc(C)c2S(=O)(=O)NCCCc2ccccc2)c1C	101
Cc1cc(C)cc(C(=O)Nc2c(C)nc3cc(C)ccn3c2=O)c1	100
Clc1ccc(-n2ncc3c(NCc4ccccc4Cl)ncnc32)cc1	104
O=C(CCc1nc(CSc2nc3ccccc3o2)no1)Nc1nc(-c2ccccc2)cs1	109

Continuation:
molecule	GIV Gai3 FP
Cn1c(=O)n(C)c2cc(/C=C3/NC(=O)N(Cc4ccc(Br)cc4)C3=O)ccc21	102
Cc1cccc(C(O)(C(=O)NN(C(=O)c2ccc(Br)o2)c2ccccc2)c2cccc(C)c2)c1	115
CCOC(=O)C1=CN(Cc2ccc(OC)c(OC)c2)C=C(C(=O)OCC)C1c1ccc(OC)c(O)c1	105
CCc1cccc(C)c1Nc1c(-c2cccc(O)c2)nc2cnc(Br)cn12	143
CCOC(=O)c1ccc2c(c1)n(CCCS(=O)(=O)[O-])c(/C=C/C=C1\N(CC)c3cc(Cl)c(Cl)cc3N1CCOc1ccccc1)[n+]2CC	112
Cc1ccccc1-n1c(=S)[nH]c2[nH]ncc2c1=O	107
CCc1onc(C)c1C1CCCN1C(=O)Nc1ccsc1C(=O)OC (stereo not drawn)	100
Cc1oc(-c2ccccc2Cl)nc1Cn1c(=O)c2cccnc2n(-c2ccccc2)c1=O	103
O=C(Nc1sc2c(c1C(=O)NCc1cccnc1)CCCCC2)c1cccnc1	112
C=CCN1C(=O)NC2(O)C(=O)c3ccccc3C12O (stereo not drawn)	111
CCNc1cc(C)nc(N2CCN(S(=O)(=O)c3ccccc3)CC2)n1	105
COc1ccc(S(=O)(=O)N2CCC(N3CCOCC3)CC2)cc1Cl	103
CC(=O)Nc1ccc(Oc2nnc(C)c3ccccc23)cc1	109

Compounds from the list above that contain a CF3 group, in the order listed:
molecule	GIV Gai3 FP
CCOC(=O)C1CCN(C(=O)c2cnn3c(C(F)(F)F)cc(-c4ccc(OC)c(OC)c4)nc23)CC1	101
Cc1ccc(NS(=O)(=O)c2cc(-c3cc(C(F)(F)F)on3)sc2C)cc1Cl	101
